# Screening results deposited in PubChem by ICCB-Longwood Screening Facility, Harvard Medical School.
# Ab BasE inh – blocks the Acinetobacter baumannii siderophore enzyme BasE; purified BasE, fluorescence polarization binding displacement; inhibition, % (no concentration beside the values); 84,000 tested, 0.1% active;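 active = both replicates above 25% with normal brightness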;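 note: 0% = negative plate control signal and 100% = positive plate control signal; stock transfer was 100 nL into about 30 µL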
# LANA-nucl inh – LANA-nucleosome interaction inhibition; AID 720717; FITC-LANA1-23 / chicken nucleosome fluorescence polarization; stronger effect = lower value; 51,000 tested, 0.3% active; z-score (concentration not given with the values);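 active = both repeat wells score below -2 in polarization z-score versus plate sample wells, excluding overly bright wells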;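 note: 100 nL library stock added to about 30 µL; numbers are from one replicate; some results filed as inactive read as strong as hits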
#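 Material: Purified chicken nucleosomes with FITC-labelled LANA N-terminal peptide (1-23) | Reagent: 50 nM FITC-LANA1-23 probe | Medium: TEN-BT buffer, pH 7.5 | Times: 10–45 min incubation at room temperature | Detection: Fluorescence polarization | Replication: Duplicates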
# * marks the source's active call; other numbers are inactive results; x = no result given.
SMILES,Ab BasE inh,LANA-nucl inh
CCOC(=O)Nc1ccc(N2C(=O)C3C4C=CC(C4)C3C2=O)cc1 (stereo not given),-1.7,-0.59
CCOC(=O)C1=C(C)NC(C)=C(C(=O)OCC)C1C(=O)OCC(=O)N1CCCc2ccccc21,0.9,x
NC(=S)c1ccc(S(=O)(=O)N2CCOCC2)cc1,x,0.53
CCOc1ncccc1C(=O)N1CCSC1=NCc1ccccc1,3.5,x
C=CCN(C(=O)C1CCCC1)c1nc2c(s1)CCCC2,0.9,x
O=c1[nH]ncn2c1c(-n1cccc1)c1c3c(sc12)CCCC3,3.1,-0.93
CCOC(=O)c1cc(-c2ccc(C#N)cc2)nn1-c1ccc(S(N)(=O)=O)cc1,1.1,x
Cc1nc(SCCCSc2n[nH]c(C)n2)n[nH]1,-0.7,0.14
O=C(CCNc1ccc(Oc2ccccc2)cc1)c1ccco1,1.8,1.1
CC1CCCCC12NC(=O)N(CN1CCN(S(=O)(=O)c3ccc4c(c3)OCCCO4)CC1)C2=O (stereo not given),2.5,x
CCNC(=O)C1=C(C)C(=O)OC12CCN(S(=O)(=O)CC)CC2,0.7,x
CC(Sc1nc2ccccc2n1C)C(=O)N(C)c1ccccc1 (stereo not given),-0.3,x
CC(=O)N(Cc1ccc(F)cc1)Cc1nc2ccccc2c(=O)[nH]1,-0.1,0.33
CC(Sc1nnnn1C)c1ccccc1Cl (stereo not given),0.1,x
CS(=O)(=O)N1N=C(c2cccs2)CC1c1ccccc1F (stereo not given),-0.7,x
CCOC(=O)Cn1nnnc1C(CC)N(Cc1cccnc1)Cc1cc2cc(C)ccc2[nH]c1=O (stereo not given),0.1,-0.19
CN(C(=O)Cn1nnc2ccccc2c1=O)C1CCCCC1,-0.8,1.3
OC(Cc1ccccc1)(c1ccccc1)c1ccccc1NC(=S)NC1CC2C=CC1C2 (stereo not given),0.5,x
CCn1nnc2cc(C(=O)N(C3=NC(C)CS3)c3ccc(Cl)cc3)ccc21 (stereo not given),-0.9,x
N#CCOC(=O)c1c2c(nc3ccccc13)CCCC2,2.5,x

# In a second layout: results already given.
# Sequence of screens – Ab BasE inh, LANA-nucl inh
> CC(Sc1nnnn1C)c1ccccc1Cl (stereo not given)
    0.1, x
> CS(=O)(=O)N1N=C(c2cccs2)CC1c1ccccc1F (stereo not given)
    -0.7, x

# Later entries
SMILES,Ab BasE inh,LANA-nucl inh
CCC(C)Cn1c(C(C)C)nc2ccccc21 (stereo not given),1.6,0.5
Cc1[nH]c2ccc(-c3nnc(SCC(=O)N4c5ccccc5CCc5ccccc54)o3)cc2c1C,0.0,-0.88
Cc1ccc(NC(=O)CC2SC(=O)N(CN3CCCCC3)C2=O)cc1 (stereo not given),-0.2,-0.91
CCOc1ccccc1N(C)S(=O)(=O)c1c(/C=C/N(C)C)noc1C,5.4,-0.6
COc1ccc(-c2nc3ccccc3c(=O)[nH]2)cc1OC,1.7,-0.0015
O=C(O)CCCn1cc(NC(=O)Cc2ccccc2)cn1,3.1,-2.1
O=C(CN1CC(=O)Oc2ccccc21)OCC(=O)c1ccc(F)cc1,1.1,0.58
CCOc1ccc(S(=O)(=O)N2CCN=C2c2ccccc2)cc1C,-1.4,0.06
N=C(N)SCCCc1nc2ccccc2[nH]1,-1.0,0.15
Cc1ccccc1OCC(=O)NC1CC2CCC1C2 (stereo not given),7.7,0.25
COc1ccc(C2CC(C(F)(F)F)n3nc(C(=O)O)cc3N2)cc1 (stereo not given),10,0.38
CCN(CC1COc2ccccc2O1)C(=O)C1CCN(C(=O)c2ccccc2C)CC1 (stereo not given),0.8,x
COc1ccc(-c2nc(SCC(=O)NCc3ccco3)c(-c3ccccc3)[nH]2)cc1,3.7,-0.3
CC(=O)N1CCN(CC(=O)N(Cc2ccccc2)c2cccc(C)c2)CC1,1.9,x
CNC(=S)NCCCc1ccccc1,-0.9,-0.58
O=C(/C=C/N1CCOCC1)c1cc2ccccc2o1,-1.0,1.4
CCS(=O)(=O)N1CCc2cc(C(=O)COC(=O)c3cc(Cl)ccc3O)ccc21,3.0,x
O=C1Nc2ccccc2S/C1=C\C(=O)N1CCOCC1,-1.2,0.22
O=C(NCCCO)c1ccc(Cl)cc1,0.1,-0.49
Cn1c(/C(C#N)=C(\O)c2ccc(F)cc2)nc2ccccc21,3.5,x
CCCCN1C(=O)CC(N2CCN(c3ccc(F)cc3)CC2)C1=O (stereo not given),2.2,0.34
CCCN1C(=O)/C(=C/c2ccc(-c3cccc(C(F)(F)F)c3)o2)NC1=S,-2.5,2.2
CC1C(=O)Nc2ccccc2N1C(=O)C1CC1 (stereo not given),x,2.5
Cc1ccc(COc2coc(CN3CCc4ccccc43)cc2=O)cc1,-0.5,2.2
Nc1ccc(C(=O)N2CCCc3ccccc32)cc1,0.2,-1.4
CC(C(=O)Nc1ccccc1)N(C)Cc1ccc(OC(F)F)cc1 (stereo not given),2.3,x
Cc1cc(OCCCN2CCCC2)ccc1Cl,-0.1,-0.15
CCOC(=O)c1c(C)oc(NC(=O)COC(=O)c2ccccc2Sc2ccccc2C#N)c1C#N,0.6,x
O=C(Oc1ccc2c3c(c(=O)oc2c1)CCC3)c1ccco1,-1.8,-0.5
Cc1cc(C(F)F)n2ncc(C(=O)O)c2n1,0.8,-0.015

# Entries of single compounds, quoted from the list. Values in the order: Ab BasE inh, LANA-nucl inh
# Entry for Cc1cc(C(F)F)n2ncc(C(=O)O)c2n1 → 0.8, -0.015
# Entry for CC1C(=O)Nc2ccccc2N1C(=O)C1CC1 (stereo not given) → x, 2.5
# Entry for CC(C(=O)Nc1ccccc1)N(C)Cc1ccc(OC(F)F)cc1 (stereo not given) → 2.3, x
# Entry for O=C(Oc1ccc2c3c(c(=O)oc2c1)CCC3)c1ccco1 → -1.8, -0.5
# Entry for CCOC(=O)c1c(C)oc(NC(=O)COC(=O)c2ccccc2Sc2ccccc2C#N)c1C#N → 0.6, x

# Filtered by structure: those above with a COOH group (3)
SMILES,Ab BasE inh,LANA-nucl inh
O=C(O)CCCn1cc(NC(=O)Cc2ccccc2)cn1,3.1,-2.1
COc1ccc(C2CC(C(F)(F)F)n3nc(C(=O)O)cc3N2)cc1 (stereo not given),10,0.38
Cc1cc(C(F)F)n2ncc(C(=O)O)c2n1,0.8,-0.015

# An excerpt from above in order of their number in LANA-nucl inh, high to low:
compound	LANA-nucl inh
CCCN1C(=O)/C(=C/c2ccc(-c3cccc(C(F)(F)F)c3)o2)NC1=S	2.2
Cc1cc(C(F)F)n2ncc(C(=O)O)c2n1	-0.015
O=C(Oc1ccc2c3c(c(=O)oc2c1)CCC3)c1ccco1	-0.5

# (listing goes on)
SMILES,Ab BasE inh,LANA-nucl inh
CC(=O)N1C(Nc2ccc(C)cc2)CCN1c1ccccc1 (stereo not given),-0.9,0.06
O=c1[nH]c(=S)[nH]cc1OCc1ccccc1,-0.4,-0.012
COc1ccccc1Cn1cccc1C1=NC(C)CO1 (stereo not given),3.1,-0.45
CCOC(=O)N1CCN(C(=O)CCc2nc3cc(Cl)ccc3n(Cc3ccccc3)c2=O)CC1,-4.2,x
COc1ccc(-c2cc(=O)c3c(OC)c(OC)c(OC)c(OC)c3o2)cc1OC,x,0.061
Cc1ccc(S(=O)(=O)c2cnccn2)cc1,5.0,0.36
O=C1CC(N2CCN(Cc3ccccc3)CC2)C(=O)N1Cc1ccccc1 (stereo not given),3.4,-1.3
O=C(COc1ccc(S(=O)(=O)N2CCOCC2)cc1)Nc1ccccc1C(F)(F)F,1.5,-0.31
CC1(c2ccc3c(c2)OCO3)NC(=O)N(CN2CCN(S(=O)(=O)c3ccccc3C#N)CC2)C1=O (stereo not given),0.4,x
CCCCn1nc(C(=O)N(C)CC(=O)Nc2ccc(F)c(F)c2F)ccc1=O,-0.4,x
CCN(CC)S(=O)(=O)c1ccc2c(c1)nc(CCC(=O)N1CCN(c3ccccc3)CC1)n2CC,1.8,x
COc1ccc(NC(=O)C2CC(C)=C(C)CC2C(=O)O)c(N2CCOCC2)n1 (stereo not given),-0.1,x
COCCn1c(C)cc(/C=C(\C#N)C(=O)OCc2cc(=O)oc3cc4c(cc23)CCC4)c1C,-3.6,x
CC(C)N(C(=O)COc1ncnc2ccc(Br)cc12)c1ccccc1,3.8,x
COc1ccc(N2CCN(S(C)(=O)=O)CC2)cc1,0.5,-0.24
CCC(C)NCC(=O)Nc1ccc2c(c1)c1ccccc1n2CC (stereo not given),-0.8,x
CCc1ccc2c(CC(=O)N3CCN(S(=O)(=O)c4cccs4)CC3)coc2c1,-0.3,x
Cc1cc(Cl)ccc1OC(C)C(=O)Nc1ccc2c(c1)OCO2 (stereo not given),-5.1,2.4
CCCC1(C(=O)OCC)CC(CSC(=N)N)OC1=O (stereo not given),1.7,x
CN(C)S(=O)(=O)c1cccc(CSc2nnnn2-c2ccccc2)c1,1.9,x
Cc1ccc(S(=O)(=O)N(C)C2CCCCC2)cc1C,-0.9,x
Cc1[nH]nc2oc(=O)c(Cl)c(C)c12,-1.3,0.12
COc1ccc(S(=O)(=O)N(C)CC(=O)NCc2ccc3c(c2)OCO3)cc1,-0.4,0.024
CCNc1[nH]c(=S)nc2c1cnn2-c1ccccc1,0.6,x
CCN(Cc1ccccc1)C(=O)c1nn(C)c(=O)c2ccccc12,0.5,x
COc1ccc(CCn2c(C)nc(=O)c(-c3ccccc3)c2C)cc1OC,-3.7,x
NC(=O)c1cn(-c2ccc(F)cc2)c(=O)c2ccccc12,x,-0.34
CC(=O)Nc1ccc(C(=S)NCCCO)cc1,0.3,x
CCCN1CCC(NC(=S)NCCOC)CC1,0.4,0.63
O=CNc1cccc(O)c1,8.7,x
CC(NC(=O)c1cc(=O)c2ccccc2o1)C(c1ccccc1)N1CCOCC1 (stereo not given),0.8,x
O=C(Cn1c(C(=O)N2CCOCC2)cc2sccc21)c1ccccc1,-1.5,0.064
Nc1ccc2nc(CN3CCOCC3)[nH]c2c1,1.6,0.23
CCCNS(=O)(=O)c1ccc(Cl)c(C(F)(F)F)c1,-0.6,x
Nc1nc2cc(S(=O)(=O)N3CCCC3)ccc2o1,1.5,x
CCNC(=O)c1ccc(-c2nc3ccccc3s2)s1,-1.3,x
Cn1cc(-c2ccccc2C(=O)O)c(=O)c2ccccc21,x,-0.52
CO[C@@H]1[C@@H](OC(N)=O)[C@H](O)[C@H](Oc2ccc3c(O)c(NC(=O)c4ccc(O)c(CC=C(C)C)c4)c(=O)oc3c2C)OC1(C)C,x,1.1
O=C(NCc1n[nH]c(=S)n1-c1cccc(Cl)c1)c1ccccc1,2.5,-0.67
CC1CCc2c(nc3ncnn3c2NCCc2ccccc2F)C1 (stereo not given),-1.2,0.25
CC(C)C(N)c1cccs1 (stereo not given),0.9,0.32
O=C(NC1CCCC1)C1CCC(=O)N1Cc1ccc(F)cc1 (stereo not given),-0.1,0.2
CCN1C(=O)C(CC(=O)Nc2ccc(OC)cc2)N(CCCN2CCN(c3ccc(OC)cc3)CC2)C1=S (stereo not given),10,-0.0025
CN(C)c1nc(OCC(F)(F)F)nc(N(c2ccccc2)c2ccccc2)n1,0.9,-0.12
Cc1ccc(S(=O)(=O)Nc2ccc(C(=O)Nc3cc(C)on3)cc2)cc1,2.2,0.034
O=C(CCCC(=O)N1CCN(c2ccccc2F)CC1)c1ccccc1,1.6,-0.83
NC1=NN=C(c2ccc3c(c2)OCCO3)CS1,-6.2,2.2
COc1ccc(/C=N/C(=S)NN)cc1,2.0,x
CC1=C/C(=N/OC(=O)c2ccccc2)C=CC1=O,1.5,-1.4
O=C(NC(=O)N1CCOCC1)c1nnc(-c2ccccc2)o1,0.8,x
# More records
SMILES,Ab BasE inh,LANA-nucl inh
C[C@@H]1NC(=O)NC1=O,0.9,0.62
C1C2OC3CC4C1C1CC4C3C21 (stereo not given),2.0,-0.52
O=C(N1CCOCC1)C12CC3CC(C1)CC(C(=O)N1CCOCC1)(C3)C2,0.6,x
O=C(COc1ccc2ccccc2c1)Nc1ccc(NC(=O)c2ccco2)cc1,5.0,0.3
COc1ccc(C(=O)NCC(=O)n2nc(C)cc2C)cc1,2.1,-0.48
Cc1ccc2c(c1)C1CN(C)CCC1N2C(=S)NC(=O)c1ccco1 (stereo not given),2.4,x
CCS(=O)(=O)NCC1COC2(CCCCC2)O1 (stereo not given),1.4,-0.64
Cc1cc(C)c(C2=Nn3c(C)nnc3SC2C)cc1C (stereo not given),-1.4,x
CCCNC(C(=O)Nc1cc(C)ccc1C)c1ccccc1 (stereo not given),5.8,x
CNCc1nonc1C,2.2,0.35
NN1CCN(Cc2cccc3ccccc23)CC1,0.1,0.055
CCc1ccc(-c2nnn(Cc3nn[nH]n3)n2)cc1,3.7,0.87
COc1ccc(CCN(C)CCc2ccc(OC)c(OC)c2)cc1OC,0.6,-0.49
CCN(CC(=O)Nc1ccc(OC)cc1)C(=O)c1ccc(C#N)cc1,1.3,x
O=C(Nc1ccc(Cl)cc1)Nc1nc(CC(=O)N2CCN(C(=O)c3ccco3)CC2)cs1,-2.1,0.59
Cc1cc(=O)oc2cc3occ(-c4ccc(F)cc4)c3cc12,0.6,0.69
CC(=O)NC(CC(=O)Nc1ccc(S(C)(=O)=O)cc1)c1ccccc1 (stereo not given),0.0,x
Cc1cc2n(n1)CCCN2Cc1ccc(C(=O)NC2CCCCC2)cc1,-2.2,-0.2
CCN(C(=O)CSc1nnc(-c2ccco2)n1Cc1ccccc1)C1=CCCC1,0.6,x
CCOC(=O)C1CCN(C(=O)c2ccc3snnc3c2)CC1,-2.0,3.2
COc1cccc2c(=O)c(NC(=O)NCCCN3CCN(C)CC3)c[nH]c12,2.4,-0.42
O=C(NCc1ccco1)c1cccc(S(=O)(=O)Nc2ccc(Br)cc2)c1,0.8,x

# These rows are one share of the data; the hit share may differ from the screen's.
